NS1 function inh: inhibitors of influenza NS1 protein function | Potency, µM (titrated, usually from 46.1 µM), for inactives: at the highest dose activity, positive = more growth | S. cerevisiae slowed by influenza A NS1, growth recovery by OD600 | 0.4% of 270,000 active; active means well fitted rising curve with a large enough effect; inconclusive means small, poorly fitted or top-dose-only effect; inactive means no such curve, though single readings can be large or run the other way; note: nearly all actives have a fitted effect of over 50% in size
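Compounds were scored for reversing the slow growth caused by influenza A NS1 in S. cerevisiae, measured by optical density at 600 nm. Assay medium contained 2% galactose at pH 6.0; NS1-free yeast of the same strain were the positive control.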
2A StopGo: lowers the luciferase signal of an FMDV 2A StopGo reporter | Potency, µM (highest dose often 57.9 µM), without a hit: at the top dose signal change, negative = less light | AID 1159524 | 1.2% of 410,000 active | human cells with a luciferase reporter of 2A StopGo recoding; control for the full effect not named in the record; active = well fitted falling curve with a large enough effect; inconclusive = small, poorly fitted or top-dose-only effect; inactive = no such curve, though single readings can be large or run the other way; tested in HEK293T cells; note: % is set by controls: 0 for no effect and ±100 for the full control effect; nearly all actives have a fitted effect of over 45% in size; luciferase light after 4 h
Lassa entry inh: blocks Lassa virus binding to or entry into cells; Lassa virus pseudotype entry inhibition, cell reporter; control for the full effect not named in the record; Potency, µM (top dose mostly 37.9 µM), for inactives: at the highest dose activity change, negative = inhibition, hits mostly inhibitors; 1.2% of 300,000 active; AID 540256; active means well fitted inhibition curve with a large enough effect; inconclusive means small, poorly fitted or top-dose-only effect, or effect the other way; inactive means flat fitted curve, though single readings scatter; tested in HEK293 cells; note: % is set by controls: 0 for no effect and ±100 for the full control effect; nearly all actives have a fitted effect of over 50% in size; luciferase read-out
Cruzain inh Det: blocks cruzain activity in presence of Triton detergent | P25779 | purified cruzain, Z-FR-AMC fluorescence, 0.01% Triton | Potency, µM, for inactives: max response, negative = inhibition, most hits filed as inhibitors | 0.43% of 200,000 active | AID 1478;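 note: plate controls were neutral wells for no effect and buffer without enzyme for full effect; nearly all actives have a fitted effect of over 40% in size; top concentration of the series not given in the record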
Target sequence (P25779 123-467 limits assumed): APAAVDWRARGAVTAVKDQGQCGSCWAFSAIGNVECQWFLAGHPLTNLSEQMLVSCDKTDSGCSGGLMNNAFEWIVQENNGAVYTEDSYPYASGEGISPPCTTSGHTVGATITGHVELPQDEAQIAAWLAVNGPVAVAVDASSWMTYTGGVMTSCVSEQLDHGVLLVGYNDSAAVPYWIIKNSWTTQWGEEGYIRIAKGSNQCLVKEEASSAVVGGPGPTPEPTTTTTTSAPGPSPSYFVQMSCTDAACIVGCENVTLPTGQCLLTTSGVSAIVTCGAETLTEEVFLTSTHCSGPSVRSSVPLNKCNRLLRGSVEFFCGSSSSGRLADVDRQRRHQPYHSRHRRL
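Purified cruzain (1.5 nM final) was preincubated with compounds for 15 min at room temperature in 100 mM sodium acetate pH 5.5, 5 mM DTT, 0.01% Triton X-100. Reaction started with 2 uM Z-FR-AMC; AMC fluorescence change over 60 s gave activity.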
Cruzain noTriton: inhibitors of Trypanosoma cruzi cruzain without detergent; P25779; purified cruzain, Z-FR-AMC fluorescence, no detergent; Potency, µM, without a hit: max response, negative = inhibition, hits mostly inhibitors; 2.3% of 200,000 active; AID 1476;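 note: plate controls were enzyme without inhibitor for no effect and buffer without enzyme for full effect; nearly all actives have a fitted effect of over 40% in size; top concentration of the series not given in the record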
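Detergent-free condition (0.00005% Triton X-100) in acetate buffer pH 5.5 with DTT. 1.5 nM enzyme and compound were pre-mixed 15 min, then 2 uM Z-FR-AMC substrate added; reaction progress from fluorescence change between first and third reads (60 s).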
Marburg entry inh: blocks Marburg virus binding to or entry into cells; Marburg virus pseudotyped entry inhibition, cell reporter; control for the full effect not named in the record; about a third of the inactives were read at about 46 µM; Potency, µM (doses to about 37.8 µM), inactives show top-dose activity change, negative = inhibition, actives largely listed as inhibitors; 1.8% of 300,000 active; active = well fitted inhibition curve with a large enough effect; inconclusive = small, poorly fitted or top-dose-only effect, or effect the other way; inactive = flat fitted curve, though single readings scatter; tested in HEK293 cells; about a fifth of its hits are not listed in these tables; note: % is set by controls: 0 for no effect and ±100 for the full control effect; luciferase read-out
SARS PLP yeast: inhibitors of SARS-CoV papain-like protease in yeast; S. cerevisiae expressing SARS-CoV PLpro, growth rescue; control for the full effect not named in the record; AID 485353; 0.19% of 330,000 active; Potency, µM (titrated, usually from 32.9 µM), without a hit: top-dose activity, positive = growth rescue; active means well fitted rising curve with a large enough effect; inconclusive means small, poorly fitted or top-dose-only effect; inactive means no such curve, though single readings can be large or run the other way; note: 0% is about no effect; nearly all actives have a fitted effect of over 55% in size; growth read by luminescence after 48 h
RE007 growth inh: less growth of the S. pombe RE007 Vpr strain. S. pombe RE007 Vpr strain, BacTiter-Glo ATP luminescence, 24 h; control for the full effect not named in the record. Potency, µM (doses to about 92.2 µM), for the others: at the highest dose activity change, negative = less growth. 0.21% of 360,000 active. AID 651644; active = well fitted falling curve with a large enough effect; inconclusive = small, poorly fitted or top-dose-only effect; inactive = no such curve, though single readings can be large or run the other way;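 note: % is set by controls: 0 for no effect and ±100 for the full control effect; nearly all actives have a fitted effect of over 50% in size; the assay follows cell death caused by Vpr and the record does not say whether a fall means rescue or toxicity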
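Fission yeast RE007 carrying one integrated HIV-1 vpr copy, seeded at OD 0.01 in PMG+AL medium with 23 nL pinned compound. Grown 24 h at 30 degrees; viability read by BacTiter-Glo luminescence after 5 min.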
Numbers without * were called inactive; ? = inconclusive; . = no result given; [ ] = remark or other dose. Unless noted, calls come from the whole dose curve; as a rule, active = well fitted curve in the direction sought with a large enough effect; inconclusive = small, poorly fitted or top-dose-only effect, or another doubt; inactive = no such curve, though single readings can be large; an effect the other way counts as inactive or inconclusive. Potency is the fitted concentration of half-maximal effect.

Keys – A = NS1 function inh; B = 2A StopGo; C = Lassa entry inh; D = Cruzain inh Det; E = Cruzain noTriton; F = Marburg entry inh; G = SARS PLP yeast; H = RE007 growth inh
O=C(CSc1nnnn1-c1ccc(Cl)cc1)N1CCc2ccccc2C1
  A: -54% | B: -21% | C: 4% | D: -1.1% | E: -11% | F: -1% | G: -14% | H: -19%

CC(=O)c1sc2nc(-c3cccs3)cc(C(F)(F)F)c2c1N
  A: -92% | B: -7% | C: 2% | D: -5.3% | E: -2% | F: 0% | G: 2% | H: -3%

O=C1c2ccccc2C(O)N1Cc1ccco1 (stereo unspecified)
  A: 3% | B: -19% | C: . | D: -1.8% | E: 5% | F: . | G: -2% | H: 6%

Cc1cc(NC(=O)CSc2n[nH]c(CC(C)C)n2)no1
  A: ? | B: -19% | C: -10% | D: 2.9% | E: -2% | F: -1% | G: 2% | H: -1%

COc1ccc(N2C(=O)CSC23CCCCC3)cc1
  A: -5% | B: 0% | C: -11% | D: 2.8% | E: -11% | F: 1% | G: -2% | H: 9%

CSc1cccc(NC(=O)CCCOc2ccc(Cl)cc2C)c1
  A: 6% | B: -13% | C: 2% | D: -5.1% | E: 1% | F: 0% | G: 5% | H: -2%

Cc1cccc(NC(=O)C2CCN(S(=O)(=O)c3c(C)nn(C)c3C)CC2)n1
  A: -2% | B: ? | C: . | D: -1.5% | E: -1% | F: -2% | G: 6% | H: 4%

COCCOC(=O)c1c(NC(=O)COC(=O)Cc2cccc(OC)c2)sc(C(N)=O)c1C
  A: -7% | B: -20% | C: . | D: . | E: . | F: . | G: 0% | H: 1%

O=C(CSc1nccc(=O)[nH]1)Nc1ccc(F)c(Cl)c1
  A: 4% | B: 6% | C: 34%[14.3 µM] | D: -12% | E: ? | F: 9% | G: 0% | H: 8%

CCc1cccc(C)c1NC(=O)CSc1nnc(-c2ccco2)n1N
  A: 2% | B: -22% | C: 8% | D: 3.3% | E: 8% | F: 20% | G: 16% | H: 4%

COc1ccccc1C(=O)NC(CCSC)C(=O)OC(C)C(N)=O (stereo unspecified)
  A: . | B: -10% | C: ? | D: . | E: . | F: 28%[46.1 µM] | G: 2% | H: -3%

CCN1CCN(S(=O)(=O)c2cc(OCC(=O)NC3CCCCC3)c(C)cc2Cl)CC1
  A: -3% | B: ? | C: -26% | D: -1.9% | E: -2% | F: ? | G: 0% | H: 2%

CCN(CC)C(=O)CCn1nc(-c2ccc(C)cc2)c2ccccc2c1=O
  A: -5% | B: -6% | C: -24%[46.1 µM] | D: . | E: . | F: -21%[46.1 µM] | G: 0% | H: 8%

CCc1ccccc1NC(=O)N1CCOc2ccccc21
  A: . | B: -18% | C: 1%[46.1 µM] | D: 0.3% | E: -2% | F: . | G: . | H: .

COCCOC(=O)c1c(C)oc2ccc(NS(=O)(=O)c3ccc(C)cc3)cc12
  A: 3% | B: 8% | C: . | D: . | E: . | F: . | G: -2% | H: -7%

COC(=O)c1ccc(NC(=O)Cn2nc(SC)n(N)c2=S)cc1
  A: ? | B: -24% | C: 2% | D: -4.7% | E: -9% | F: ? | G: 4% | H: -10%

CCOC(=O)C(Cc1ccccc1)C(=O)Nc1ccc(NC(=O)C(Cc2ccccc2)C(=O)OCC)cc1 (stereo unspecified)
  A: 9% | B: -23% | C: 11% | D: -2.0% | E: 7.9µM* | F: 14% | G: 2% | H: -17%

Cc1sc2ncnc(N(C)Cc3ccco3)c2c1C
  A: -112% | B: 22µM* | C: -13% | D: 0.0% | E: 7% | F: -6% | G: ? | H: 1%

Cc1ccc2c(c1)nnn2C1CCN(C(=O)c2cccs2)CC1
  A: 1% | B: -9% | C: 3% | D: 4.9% | E: -2% | F: -55% | G: -2% | H: 9%

COC(=O)c1cc(S(=O)(=O)N2CCN(c3ccc(C(C)=O)cc3)CC2)cn1C
  A: -6% | B: 10% | C: . | D: . | E: . | F: . | G: 0% | H: 7%

O=c1oc2ccccc2cc1-c1nc2ccccc2o1
  A: -44% | B: 20% | C: -17% | D: ? | E: ? | F: 10% | G: -3% | H: ?

CN(C)c1ncc(C(=O)NCc2ccc(Cl)cc2)cn1
  A: . | B: -9% | C: ? | D: -1.3% | E: -3% | F: . | G: . | H: .

CC(C(=O)Nc1ccc2c(c1)OCO2)N1CCN(C)CC1 (stereo unspecified)
  A: 3% | B: -12% | C: 9% | D: . | E: . | F: 2%[46.1 µM] | G: 0% | H: 24%

Cc1ccc(C2CC(=O)Nc3cc4c(cc32)OCO4)o1 (stereo unspecified)
  A: -5% | B: -11% | C: -16% | D: 3.7% | E: 8% | F: ? | G: -2% | H: -2%

NC(=O)c1ccc(Cc2ncc(C(F)(F)F)cc2Cl)s1
  A: 5% | B: -18% | C: 3% | D: -2.1% | E: -8% | F: ? | G: 0% | H: -7%

COc1cc2c(cc1OC)C(c1ccccc1)N(C(=O)C(C)(C)C)CC2 (stereo unspecified)
  A: -2% | B: 9% | C: . | D: . | E: . | F: . | G: -1% | H: 2%

NS(=O)(=O)c1ccc(CCNC(=O)CCCn2ncn3c(cc4occc43)c2=O)cc1
  A: -10% | B: -9% | C: . | D: . | E: . | F: . | G: 2% | H: 1%

CCOC(=O)COc1ccc(C(=O)NC2CCCCC2)cc1
  A: 7% | B: 10% | C: 1% | D: 10% | E: 5% | F: 5% | G: -4% | H: 14%

CC(=O)Nc1cc(C(=O)NCc2ccc(C)cc2)ccc1S(=O)(=O)c1ccc(Cl)cc1
  A: . | B: -11% | C: -24%[46.1 µM] | D: 1.0% | E: -5% | F: . | G: . | H: .

O=C(COc1ccc2ccccc2c1Br)NNC(=O)Nc1ccccc1
  A: -5% | B: -6% | C: 36%[14.3 µM] | D: -0.1% | E: ? | F: 24% | G: -3% | H: -10%

CSc1ccc(CNC(C)C(O)c2ccccc2)cc1 (stereo unspecified)
  A: 1% | B: -6% | C: 4%[46.1 µM] | D: . | E: . | F: ? | G: 1% | H: -17%

COc1ccc(CNC(=O)C2CCN(S(=O)(=O)c3cccnc3)CC2)cc1
  A: 1% | B: -13% | C: . | D: . | E: . | F: . | G: 3% | H: -1%

O=C1NC2(CCCC2)N=C1c1ccc(Cl)cc1
  A: -18% | B: 40%[activator] | C: 11%[14.3 µM] | D: 5.8% | E: 12% | F: 24% | G: -10% | H: -9%

CC(C)N1CCN(Cc2ccc(Sc3nncn3C)o2)CC1CCO (stereo unspecified)
  A: 1% | B: -3% | C: . | D: . | E: . | F: . | G: -2% | H: -1%

CC(NC(=O)c1ccc(S(=O)(=O)Nc2ccccc2Cl)cc1)c1ccncc1 (stereo unspecified)
  A: . | B: 23% | C: 19%[46.1 µM] | D: . | E: . | F: -20%[46.1 µM] | G: 1% | H: 3%

O=C1CS/C(=N/N=C/c2ccncc2)N1
  A: 1% | B: 14% | C: -1% | D: . | E: . | F: -29%[14.2 µM] | G: 1% | H: -10%

Nc1nnc(SCC(=O)OCc2ccccc2)s1
  A: 9% | B: 5% | C: 15% | D: -2.9% | E: -6% | F: 6% | G: -3% | H: 12%

O=c1c2ccccc2cnn1CCOc1cccc(Br)c1
  A: -13% | B: 48%[activator] | C: ? | D: . | E: . | F: ? | G: -2% | H: -4%

CCOC(=O)c1sc(=S)n(C)c1NC(=O)c1ccccc1Cl
  A: -38% | B: -15% | C: 16% | D: -11% | E: 2% | F: -5% | G: 22µM* | H: 7%

O=C(NCCc1ccccc1)C(=O)NCC(c1cccnc1)N1CCN(c2ccccc2)CC1 (stereo unspecified)
  A: . | B: ? | C: -7%[46.1 µM] | D: -1.4% | E: 4% | F: . | G: . | H: .

A second format for five compounds above.
canonical_smiles	NS1 function inh	2A StopGo	Lassa entry inh	Cruzain inh Det	Cruzain noTriton	Marburg entry inh	SARS PLP yeast	RE007 growth inh
CSc1cccc(NC(=O)CCCOc2ccc(Cl)cc2C)c1	6%	-13%	2%	-5.1%	1%	0%	5%	-2%
Cc1cccc(NC(=O)C2CCN(S(=O)(=O)c3c(C)nn(C)c3C)CC2)n1	-2%	?	.	-1.5%	-1%	-2%	6%	4%
COCCOC(=O)c1c(NC(=O)COC(=O)Cc2cccc(OC)c2)sc(C(N)=O)c1C	-7%	-20%	.	.	.	.	0%	1%
O=C(CSc1nccc(=O)[nH]1)Nc1ccc(F)c(Cl)c1	4%	6%	34%[14.3 µM]	-12%	?	9%	0%	8%
CCc1cccc(C)c1NC(=O)CSc1nnc(-c2ccco2)n1N	2%	-22%	8%	3.3%	8%	20%	16%	4%

(list continues)
Keys – A = NS1 function inh; B = 2A StopGo; C = Lassa entry inh; D = Cruzain inh Det; E = Cruzain noTriton; F = Marburg entry inh; G = SARS PLP yeast; H = RE007 growth inh
COc1cc2c(cc1OC)CN(C(C)C(=O)Nc1ccc(NC(C)=O)cc1)CC2 (stereo unspecified)
  A: 18% | B: 18% | C: 6% | D: -3.2% | E: -1% | F: -20% | G: -3% | H: 6%

COC(=O)c1sc(C(=O)OC)c(C(=O)OC)c1C(=O)OC
  A: 2% | B: -9% | C: 12% | D: -1.6% | E: 3% | F: ? | G: -18% | H: 0%

COCCOc1cc(-n2cccc2)c(Cl)cc1Cl
  A: . | B: -19% | C: 19%[46.1 µM] | D: . | E: . | F: ? | G: 0% | H: 3%

COCCN(C(=O)CSc1nnc(-c2ccccc2F)n1C)c1c(N)n(Cc2ccccc2)c(=O)[nH]c1=O
  A: . | B: -4% | C: 6%[46.1 µM] | D: . | E: . | F: 9%[46.1 µM] | G: 0% | H: -16%

Cc1ccc(CN2CC(C(=O)Nc3ccc(S(=O)(=O)Nc4cc(C)nc(C)n4)cc3)CC2=O)cc1 (stereo unspecified)
  A: -2% | B: 11% | C: 2% | D: -0.2% | E: 21% | F: ? | G: -4% | H: 3%

Cc1cc(Cl)c(S(=O)(=O)NCCC(=O)O)cc1OCC(N)=O
  A: 0% | B: 16% | C: 25% | D: -1.7% | E: -12% | F: 8% | G: 0% | H: 6%

COc1cc2c(C(=O)Nc3ccccc3F)cn(C)c(=O)c2cc1OC
  A: -2% | B: -19% | C: . | D: . | E: . | F: . | G: -1% | H: 3%
